GLA inh pH 4.5 – blocks human alpha-galactosidase A at pH 4.5; AID 1467; P06280; activity change, negative = inhibition, % at 105 µM; 230,000 tested, under 10 active; purified enzyme, 4-MU-alpha-Gal fluorescence, pH 4.5; inconclusive = small, poorly fitted or top-dose-only inhibition, or a rising curve; inactive = flat fitted curve, though single readings scatter; no compound was filed as active;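 also: 0% = full activity with enzyme and -100% = basal without enzyme; dose as in the result columns while the protocol names 77 µM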
miR-21 reporter – miR-21 reporter, rising signal. HeLa miR-21 FLuc reporter, luciferase, 48 h. Potency, µM (titrated, usually from 38.3 µM), inactives show top-dose reporter change, positive = more light. 340,000 tested, under 10 active; active = well fitted rising curve with a large enough effect; inconclusive = small, poorly fitted or top-dose-only effect; inactive = no such curve, though single readings can be large or run the other way;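 also: % of control where 0% means no effect; miR-21 action dims this reporter so a rising signal means less miR-21 action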
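HeLa miR-21-FLuc reporter line, endogenous miR-21; 2000 cells/well in DMEM/10% FBS; compound titration up to ~40uM final, 48 h, 37 degree Celsius; luciferase detection reagent, 15 min lysis, CCD luminescence.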
Rango complex inh – inhibitors of Rango-importin beta complex formation; Potency, µM (series often up to 92.2 µM), without a hit: top-dose inhibition of complex formation; actives 0.031% (n = 340,000); Q14974; AID 540263; Rango CFP/YFP FRET sensor + importin beta, 45 min; active = rising FRET ratio curve, often small or poorly fitted; inconclusive = mostly compound fluorescence or quenching in the first reads; inactive = flat curves in all reads;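 also: potency is read from the fitted curve at half-maximal effect; 0% = DMSO wells and 100% = buffer wells lacking importin beta; nearly all actives have a fitted effect of over 15% in size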
Target sequence (Q14974 whole entry, looked up): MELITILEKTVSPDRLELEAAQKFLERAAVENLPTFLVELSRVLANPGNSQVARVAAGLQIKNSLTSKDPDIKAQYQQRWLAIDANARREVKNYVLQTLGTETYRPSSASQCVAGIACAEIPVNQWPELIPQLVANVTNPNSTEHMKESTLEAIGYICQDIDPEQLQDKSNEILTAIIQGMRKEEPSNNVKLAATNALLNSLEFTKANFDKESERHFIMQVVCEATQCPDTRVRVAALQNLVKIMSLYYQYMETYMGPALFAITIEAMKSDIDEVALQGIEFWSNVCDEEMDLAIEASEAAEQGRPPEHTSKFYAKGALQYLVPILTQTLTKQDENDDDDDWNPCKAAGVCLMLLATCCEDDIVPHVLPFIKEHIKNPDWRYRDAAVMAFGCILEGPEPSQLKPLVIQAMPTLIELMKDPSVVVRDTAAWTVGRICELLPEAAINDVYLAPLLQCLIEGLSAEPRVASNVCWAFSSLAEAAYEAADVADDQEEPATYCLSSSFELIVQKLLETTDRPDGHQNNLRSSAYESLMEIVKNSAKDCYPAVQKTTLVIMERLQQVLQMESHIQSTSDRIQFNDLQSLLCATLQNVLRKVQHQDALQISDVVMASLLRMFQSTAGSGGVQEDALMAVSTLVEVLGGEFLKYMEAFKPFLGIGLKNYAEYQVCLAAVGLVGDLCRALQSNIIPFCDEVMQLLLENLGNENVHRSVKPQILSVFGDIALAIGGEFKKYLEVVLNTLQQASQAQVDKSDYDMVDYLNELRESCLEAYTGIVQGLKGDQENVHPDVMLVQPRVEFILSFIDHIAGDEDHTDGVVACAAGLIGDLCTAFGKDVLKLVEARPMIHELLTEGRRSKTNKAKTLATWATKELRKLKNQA
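FRET biosensor (snurportin 1 IBB flanked by EYFP and cerulean), 50 nM, with compound 5 min, then 0.125 microM importin beta in PBS, 1 mM DTT, 0.02% Tween-20, 0.1% BSA. CFP/YFP ratio read after 45 min at room temperature; pre-read flags interference.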
Rango release inh – prevents RanGTP from dissociating the Rango-importin beta complex; O95149+P62826; Biochemical FRET Rango-importin beta, RanGTP-induced dissociation; Potency, µM (doses to about 46.1 µM), inactives show top-dose activity change, negative = inhibition; actives 0.071% (n = 340,000); AID 540253; active means falling FRET ratio curve, often poorly fitted, with flat reads before Ran was added; inconclusive means other falling curves, or compound fluorescence or quenching; inactive means flat or rising ratio curve;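 also: potency is read from the fitted curve at half-maximal effect; % of control where 0% means no effect; nearly all actives have a fitted effect of over 45% in size; -100% = wells without RanGTP and RCC1; the record marks most hits as doubtful in a second field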
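Recombinant Rango FRET biosensor (EYFP–snurportin 1 IBB–cerulean CFP10) at 0.1 uM premixed with 0.25 uM importin beta in PBS, 1 mM DTT, 0.02% Tween-20, 0.1% BSA. Compound added 5 min; RanGTP-RCC1 (0.6 uM Ran, 2 mM GTP, 0.2 uM RCC1) then triggers release, read at 45 min.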
The depositor's hits bear a star; ? = inconclusive; / = not tested or not shown; & = joins results of further samples.

SMILES	GLA inh pH 4.5	miR-21 reporter	Rango complex inh	Rango release inh
C[C@H]1CN([C@@H](C)CO)C(=O)Cc2cc(NC(=O)Cc3ccccc3)ccc2O[C@H]1CN(C)S(=O)(=O)c1cccs1	/	/	1.4%	12%
CCCCCCCCCCCC(=O)N1CC(=O)NC(=O)C1	-2	4%	-0.4%	-6%
CCSc1ccccc1C(=O)Nc1nncs1	-6	-2%	-3.7%	2%
CCOc1ccc(C2C(C#N)=C(C)NC3=C2C(=O)c2ccccc23)cc1 (stereo not drawn)	-9	-21%	-4.3%	-10%
Cc1ccccc1OCC(O)Cn1c(NCc2ccco2)nc2c1c(=O)n(C)c(=O)n2C (stereo not drawn)	10	11%	0.9%	1%
O=[N+]([O-])c1cc([N+](=O)[O-])c(Oc2ccc(F)cc2F)cc1NN1CCCCC1	/	1%	1.3%	-6%
Cc1onc(-c2ccccc2)c1C(=O)NCCc1ccc(S(N)(=O)=O)cc1	2	-3%	2.0%	4%
COc1ccc(NC(=O)CCc2nnc3ccc(N4CCN(c5cccc(OC)c5)CC4)nn23)cc1	/	3%	-0.4%	15%
CCn1c(=O)cc(OCC(=O)NCCCN2CCC(C)CC2)c2ccccc21	2	0%	8.3%	-2%
Cc1ccc(NC(=O)C2CCCO2)c(Br)c1 (stereo not drawn)	/	/	0.9%	6%
Cc1ccccc1C(=O)NCC(=O)OCCOc1ccc(C(C)C)c(C)c1	/	/	2.6%	15%
CC(=O)NCc1ccc(-c2csc(NC(=O)CCc3nc4ccccc4c(=O)[nH]3)n2)s1	/	/	?	0%
CCN1C[C@@H]2[C@@H]3C(=O)N(Cc4ccccc4)C(=O)[C@@H]3[C@](CC)(C1=O)N2C(=O)c1ccc(Br)cc1	/	/	4.3%	-14%
Cc1csc(NC(=O)c2ccc(Cl)nc2)n1	/	-33%	3.7%	-14%
CCOc1ccc2oc(-c3ccccc3)c(C(=O)N3CCN(C)CC3)c2c1	-11	1%	-0.1%	-6%
C=CCC1c2cccc(C(=O)O)c2C(=O)N1c1ccc(F)cc1 (stereo not drawn)	14	1%	-1.4%	0%
COc1ccc(C(=O)CCC(=O)O)cc1	3	-11%	-1.1%	-12%
Fc1ccccc1N1CCN(C2CCCN(Cc3ccccc3C(F)(F)F)C2)CC1 (stereo not drawn)	/	4%	-1.1%	12%
COc1ccc(C(=O)c2c[nH]c(C(=O)NCc3ccco3)c2)cc1	4	-22%	-0.4%	-9%
COc1ccc2[nH]cc(CCNC(=O)c3ccccc3Cl)c2c1	/	-2%	0.0%	1%
COc1ccc(-c2[nH]ncc2-c2cscn2)c(O)c1	0	-1%	0.0%	-1%
O=C(COC(=O)c1ccc([N+](=O)[O-])s1)NC(=O)NCc1ccccc1	0	0%	0.8%	-5%
CCOC(=O)CN(C)C(=O)C1CCCN1C(=O)OC(C)(C)C (stereo not drawn)	/	/	-1.1%	10%
Oc1ccc(/C=N/Nc2ccnc3cc(Cl)ccc23)cc1O	-1	-10%	-5.8%	8%
CCOC(=O)C1=C(O)/C(=C/c2ccc(OCC(=O)Nc3ccc(C)cc3)cc2)N=C1C	/	2%	?	?
CCN(CC)C(=O)CN1C(=O)C2(NC(=O)c3ccccc3N2)c2ccccc21 (stereo not drawn)	9	1%	-2.1%	-7%
CC(OC(=O)CSc1ccc([N+](=O)[O-])cc1)C(=O)NC1CC1 (stereo not drawn)	/	/	3.2%	-11%
O=C(NCc1ccncc1)C(=O)NC1CC1	7	0%	-3.7%	5%
O=C(C1Cc2ccccc2O1)N1CCCCC1 (stereo not drawn)	6	-4%	2.5%	1%
Cc1sc2nc3n(c(=O)c2c1C)Cc1ccccc1-3	3	-42%	/	/

A draw from above in order of heavy-atom count, smallest number first:
SMILES	GLA inh pH 4.5	miR-21 reporter	Rango complex inh	Rango release inh
COc1ccc(C(=O)CCC(=O)O)cc1	3	-11%	-1.1%	-12%
O=C(NCc1ccncc1)C(=O)NC1CC1	7	0%	-3.7%	5%
O=C(C1Cc2ccccc2O1)N1CCCCC1 (stereo not drawn)	6	-4%	2.5%	1%
COc1ccc(-c2[nH]ncc2-c2cscn2)c(O)c1	0	-1%	0.0%	-1%
CC(OC(=O)CSc1ccc([N+](=O)[O-])cc1)C(=O)NC1CC1 (stereo not drawn)	/	/	3.2%	-11%
C=CCC1c2cccc(C(=O)O)c2C(=O)N1c1ccc(F)cc1 (stereo not drawn)	14	1%	-1.4%	0%
COc1ccc(C(=O)c2c[nH]c(C(=O)NCc3ccco3)c2)cc1	4	-22%	-0.4%	-9%
O=C(COC(=O)c1ccc([N+](=O)[O-])s1)NC(=O)NCc1ccccc1	0	0%	0.8%	-5%
CCOc1ccc2oc(-c3ccccc3)c(C(=O)N3CCN(C)CC3)c2c1	-11	1%	-0.1%	-6%
CCn1c(=O)cc(OCC(=O)NCCCN2CCC(C)CC2)c2ccccc21	2	0%	8.3%	-2%
Fc1ccccc1N1CCN(C2CCCN(Cc3ccccc3C(F)(F)F)C2)CC1 (stereo not drawn)	/	4%	-1.1%	12%
CCOC(=O)C1=C(O)/C(=C/c2ccc(OCC(=O)Nc3ccc(C)cc3)cc2)N=C1C	/	2%	?	?
CCN1C[C@@H]2[C@@H]3C(=O)N(Cc4ccccc4)C(=O)[C@@H]3[C@](CC)(C1=O)N2C(=O)c1ccc(Br)cc1	/	/	4.3%	-14%
COc1ccc(NC(=O)CCc2nnc3ccc(N4CCN(c5cccc(OC)c5)CC4)nn23)cc1	/	3%	-0.4%	15%

More entries:
SMILES	GLA inh pH 4.5	miR-21 reporter	Rango complex inh	Rango release inh
NC(=O)C1(N2CCCCC2)CCN(C(=O)c2ccc(C#Cc3ccccc3)o2)CC1	-10	4%	0.2%	4%
COc1ccc(CNS(=O)(=O)c2ccc3c(c2)N(C)CCO3)cc1	/	9%	2.4%	26%
COc1cccc(OCC(O)CN2CCOCC2)c1 (stereo not drawn)	-2	3%	1.4%	-24%
O=C(OCC(=O)N1CCCC1=O)c1cc(Cl)ccc1O	/	/	1.0%	21%
N#CCSc1nc(-c2ccccc2)c2cc(Cl)ccc2n1	-2	-4%	-1.3%	-11%
Cc1cc2[nH]c(=O)cc(-c3ccccc3)n2n1	/	-14%	5.0%	16%
Cc1ccc(NC(=O)CSc2nnc(Cn3cnc4ccccc43)o2)c(C)c1	-2	1%	-4.9%	-3%
O=C1c2cnccc2CN1Cc1ccccc1	1	-3%	3.8%	8%
O=C(O)c1ccccc1CSc1ccccn1	-9	1%	4.1%	6%
CCN(CC)CC(=O)Nc1ccc(-c2ccc(NC(=O)CN(CC)CC)c(OC)c2)cc1OC	-5	-1%	3.5%	22%
CN(C)/C=N/C(=S)Nc1cc(Cl)cc(Cl)c1	-2	7%	-0.1%	2%
CCOC(=O)N1CCN=C1SCc1ccc(Cl)c(Cl)c1	-5	-2%	0.4%	2%
CCC(Oc1ccccc1)C(=O)Nc1ccc(S(=O)(=O)NCC2CCCO2)cc1 (stereo not drawn)	5	5%	0.0%	6%
COc1ccc(N(CC(=O)NCCSCc2ccco2)S(=O)(=O)c2ccccc2)cc1OC	/	2%	0.1%	13%
Cc1cc(C(F)(F)F)n(-c2nc(C(=O)O)cs2)n1	3	-3%	-0.1%	-2%
Cc1nnc(NC(=O)CSc2nccn2-c2cccc(C)c2C)s1	-2	20%	3.3%	3%
Cc1c(NC(=O)CSc2ccccn2)c(=O)n(-c2ccccc2)n1C	0	-3%	-5.0%	-3%
CCOC(=O)c1cnc2c(cnn2C)c1NCc1ccc(OC)cc1	12	-3%	0.6%	7%
Cc1cccc2sc(NC(=O)CN3C(=O)c4ccccc4C3=O)nc12	3	-2%	1.4%	-1%
COc1ccc(CCNC(=O)C2CCC(CNS(=O)(=O)c3ccc(F)cc3)CC2)cc1OC (stereo not drawn)	-2	-7%	0.6%	9%
O=c1c2ccccc2nc(SCc2cc([N+](=O)[O-])cc3c2OCOC3)n1-c1ccccc1	-3	-6%	4.6%	-14%
CCn1c(=O)c(C(=O)NCc2ccc(Cl)cc2)c(O)c2ccccc21	/	-3%	-2.1%	-12%
CCO[C@@H]1OC(C(=O)NC2CC2)=C[C@H](C(C)(C)C)[C@H]1CCCO	5	0%	?	-3%
Cc1ccccc1OCC(=O)NNC(=O)Cn1[nH]c(=O)c2ccccc2c1=O	/	/	0.7%	-14%
CC(c1nccs1)N(C)C(=O)c1ccc(OC2CCN(CCc3ccccc3)CC2)cc1 (stereo not drawn)	/	-7%	1.7%	-19%
COCCNC(=O)[C@H](C)[C@H]1C[C@]1(C)[C@H](NC(=O)OCc1ccccc1)c1ccccc1	5&-3	0%	0.2%	-3%
CCn1nccc1C(=O)Nc1ccc(C(=O)OC(C)C)cc1	/	-17%	0.0%	7%
Cc1ccccc1NC(=O)c1ccc(Cn2cc([N+](=O)[O-])cn2)o1	-1	4%	0.7%	12%
CC(C)(C)c1cc(NCCCn2ccnc2)n2ncc(-c3ccccc3)c2n1	-14	-22%	0.5%	-11%
O=C1N/C(=C/c2cccs2)C(=O)N1Cc1ccc(F)cc1	0	2%	-3.6%	-11%
CCOc1ccc(NC(=O)[C@@H](NC(=O)c2ccccc2)[C@@H](C)CC)cc1	-1	-4%	4.4%	-6%
Cc1ccc(NC(=O)C2CC(=O)NC(N3CCc4ccccc43)=N2)cc1 (stereo not drawn)	6	0%	?	?
CCCCOc1ccccc1NC(=O)Cn1c(-c2nonc2N)nc2ccccc21	9	10%	1.2%	11%
COc1ccc(NC2=C(Cl)C(=O)N(CCc3ccccc3)C2=O)c(OC)c1	-5	-49%	1.3%	2%
Nc1nc2n(n1)C(=O)CC(c1ccc(Cl)cc1)N2 (stereo not drawn)	0	-2%	0.1%	8%
O=C1NC(=S)NC(=O)C1Nc1ccc(Cl)cc1	/	/	3.7%	25%
COc1ccc(CCCC(=O)N/N=C/c2ccc(C)cc2)cc1	12	0%	1.1%	13%
O=C(CN1CCOc2ccccc21)N1CCC(Cc2ccccc2)CC1	/	/	?	-27%
Cn1c(SCC(=O)NCC2CCCO2)nnc1-c1ccc(Cl)cc1 (stereo not drawn)	/	/	0.0%	-4%
CCCCCc1c(C)nc(Nc2ccccc2)[nH]c1=O	-7	-1%	-2.0%	-18%
O=C1C2C3C=CC(C3)C2C(=O)N1CCN1CCN(S(=O)(=O)/C=C/c2ccccc2)CC1 (stereo not drawn)	8	1%	-0.6%	-4%
COc1ccc(C)cc1S(=O)(=O)N1CCN(C(=O)c2ncoc2-c2ccc(C)cc2)CC1	/	2%	-1.5%	-1%
CSc1nccc(Oc2cccc(C#N)c2)n1	-2	-1%	-0.2%	-1%

Compound activity (PubChem)

The list is partial. The share of hits here may be higher or lower than overall.
